Compound activity (PubChem)
N370S GC mod: inhibitors or activators of N370S glucocerebrosidase for Gaucher disease; N370S GC spleen homogenate, 4MU-glucoside fluorescence; Potency, µM (doses to about 59.4 µM), without a hit: at the top dose activity change, negative = inhibition, hits mostly inhibitors; hit rate 0.092% among 330,000; active means well fitted inhibition curve with a large enough effect;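 further: 0% = full enzyme activity and -100% = no enzyme basal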
* = called active by the depositor; & = joins results of further samples; [ ] = dose if it differs, or a comment. Potency means the concentration at half of the fitted maximal effect. Some of the compounds tested, and most or all hits are left out here.

SMILES	N370S GC mod
CC1=C(C(=O)OC(C)C)C(c2c[nH]c3ccccc23)n2ncnc2N1 (stereo not given)	0%
CCOC(=O)c1cc(C#N)c(SCC(=O)c2cc(C#N)c(SC)nc2C)nc1C	-8%
CCOc1ccc(-c2cccc(NS(=O)(=O)c3cc([N+](=O)[O-])ccc3C)c2)nn1	-10%
CCCOC(=O)c1ccc(NC(=O)c2c(Cl)ccc(Cl)c2OC)cc1	-13%
Cc1nn(-c2ncc(C(F)(F)F)cc2Cl)c(=O)n1-c1ccccc1	7%
COC(=O)CN(C#N)c1nc(OC)nc(N(C)C)n1	8%
CC(CC(=O)Nc1nncs1)c1ccccc1 (stereo not given)	-11%
CN(CCC1CCOCC1)C(=O)C1CCC(=O)N(CCc2ccc(Cl)cc2)C1 (stereo not given)	-10%
O=C(CN(Cc1ccccc1)S(=O)(=O)c1ccccc1)N/N=C/c1ccc2c(c1)OCO2	0%
CC1CC(C)(C)NC(=S)N1CCC(=O)N1c2ccccc2CC1C (stereo not given)	-11%
CCOc1cc(C)c(Cl)cc1S(=O)(=O)n1ccnc1	3%
CCN(Cc1ccccc1)C(=O)CCS(=O)(=O)c1cc2c(cc1Cl)NC(=O)CO2	-6%
O=S(=O)(/N=C(\[O-])C[n+]1ccccc1)c1ccc(Cl)cc1	-1%
NC(=O)c1ccc(F)cc1	4%
O=C(NCC1CCCO1)c1cccc(Oc2ccc([N+](=O)[O-])cc2)c1 (stereo not given)	1%
COC(=O)C(Cc1ccc(O)cc1)NC(=O)c1ccc2c(c1)OCCO2 (stereo not given)	-16%
CCN(CC)C(=O)c1sc(NC(=O)Cc2cccs2)c(C#N)c1C	3%
O=C(O)CCC(NC(=O)c1ccc(Cl)cc1)C(=O)O (stereo not given)	0%
CC1=NN(C(=O)c2c(Br)cnn2C)C(O)(C(F)(F)F)C1 (stereo not given)	3%
Cc1c(C(=O)N(C)C)c2cc(Cl)ccc2n1O	3%
O=C(NC1CCCC1)C1CCCN(S(=O)(=O)c2cnc[nH]2)C1 (stereo not given)	6%
Cc1ccc(/C=C/C(=O)NC2=NCCS2)cc1	-10%
CCC/C=C1/CCCOC(C(=O)NCc2cc(C)n(C)n2)(C(F)(F)F)C1 (stereo not given)	4%
CC(C)c1nnc(NC(=O)Cc2ccccc2[N+](=O)[O-])s1	5%
O=C(Nc1ccncc1)Nc1cccc(F)c1	-11%
COc1ccc(-c2nnc3ccc(SCC(N)=O)nn23)cc1OC	-7%
Cc1ccc(CN2CCN(C/C(Cl)=C/c3ccccc3)CC2CCO)o1 (stereo not given)	-5%
CC1CCCCN1CCn1c(=S)[nH]c2cc3c(cc2c1=O)OCO3 (stereo not given)	2%
COc1ccc2cc(C(C)c3nc4ccccc4c(=O)n3N)ccc2c1 (stereo not given)	11%
Cc1ccc(S(=O)(=O)N(CC2CO2)c2cc(Cl)ccc2Cl)cc1 (stereo not given)	3%
Cc1sc2ncn(CC(=O)N3CCCC(C)C3)c(=O)c2c1S(=O)(=O)N1CCCCC1 (stereo not given)	-4%
Cc1cc(/C=C2\SC(=S)N(Cc3ccco3)C2=O)c(C)n1-c1cccnc1	0%
C#CCNC(=O)C(C)c1ncc(C(F)(F)F)cc1Cl (stereo not given)	-12%
COc1ccc(NC(=O)NNC(=O)c2ccc(Cl)cc2Cl)cc1OC	9%
O=C(c1ccccc1-n1cccc1)N1N=C(C(F)F)CC1(O)C(F)F (stereo not given)	-13%
CN(C)c1ccc(/C=N/NS(=O)(=O)c2ccc(Br)cc2)cc1	-1%
CN1CCc2c(sc(NC(=O)CS(=O)(=O)c3ccccc3)c2C(N)=O)C1	-2%
Cc1ccc(OCC(=O)Nc2cccc(O)c2)cc1C	3%
COC(=O)c1sc(N2CCN(c3ccc(Cl)cc3)CC2)nc1N	26%
Cc1cccc(C)c1OCc1cc(C(=O)N2CCCCCCC2)no1	-1%
C1CN=C(NC23CC4CC(CC(C4)C2)C3)C1	-9%
O=C(CCc1ccccn1)N1CCCC(N2CCN(c3ccc(F)cc3)CC2)C1 (stereo not given)	-1%
Cc1c2oc3c(C)ccc(C(=O)N[C@@H]4C(=O)N[C@H](C(C)C)C(=O)N5CCC[C@H]5C(=O)N(C)CC(=O)N(C)[C@@H](C(C)C)C(=O)O[C@@H]4C)c3nc-2c(C(=O)N[C@@H]2C(=O)N[C@H](C(C)C)C(=O)N3CCC[C@H]3C(=O)N(C)CC(=O)N(C)[C@@H](C(C)C)C(=O)O[C@@H]2C)c(N)c1=O	-15%&-4%
O=C(NCCc1ccccc1)C1CCN(C2CCN(Cc3ccco3)CC2)CC1	-10%
O=C(NCC(=O)N(CC1CCCO1)C(C(=O)NC1CCCCC1)c1cccnc1)c1cccs1 (stereo not given)	2%
COc1ccc(OC)c(-c2csc(N3CCC(c4ccccc4)CC3)n2)c1	4%
Cc1cc(OC(=O)c2c(Cl)cccc2Cl)nc(C)n1	4%
NC(=O)C(CC(=O)O)NC(=O)[C@@H]1CCCNc2c(I)cc([N+](=O)[O-])cc2C(=O)N[C@@H](CO)C(=O)N[C@@H](Cc2ccc(O)cc2)C(=O)N1 (stereo not given in full)	4%
COc1ccc(C2Cc3ccccc3C(=O)O2)cc1 (stereo not given)	-4%
COc1cc(C(=O)NCc2ccccn2)ccc1OCc1c(C)noc1C	-3%
Cc1ccc(C(=O)NNC(=O)c2cccc(C)c2)cc1	-7%
O=C(C1CCN(S(=O)(=O)c2cccnc2)CC1)N1CCN(c2cccc(Cl)c2)CC1	-5%
CCCOC(=O)NC(CC)COC(=O)Nc1cc(C)ccc1C (stereo not given)	5%
CC(C)CCNC(=O)c1ccc(CS(=O)(=O)Cc2ccccc2F)o1	-4%
Cc1cc(NC(=O)c2ccco2)c(=O)n(Cc2c(F)cccc2Cl)c1	-2%
Cc1cccc(NC(=O)C2(c3ccc([N+](=O)[O-])cc3)CCCC2)c1	20%
COc1cc(OC)c2c(c1)S(=O)(=O)C(c1ccccc1)=C2N	-5%
CC(C)C[C@H]1C(=O)N2CCCC2[C@]2(O)O[C@](NC(=O)[C@@H]3C=C4c5cccc6[nH]c(Br)c(c56)C[C@H]4N(C)C3)(C(C)C)C(=O)N12 (stereo not given in full)	-7%&4%
CC(=O)c1ccccc1NS(=O)(=O)c1cccc2nonc12	0%
CC1CCc2c(sc(NC(=O)Cn3nc(C(=O)O)c4ccccc4c3=O)c2C#N)C1 (stereo not given)	-5%
More records follow.
SMILES	N370S GC mod
COc1ccc(C(=O)Nc2nc3nccc(-c4ccccc4)n3n2)cc1	0%
CC(C)CCN1CCN(Cc2nc(-c3ccccc3)cs2)CC1CCO (stereo not given)	1%
COc1ccc(-n2nc3c(c2NC(=O)c2ccco2)CS(=O)(=O)C3)cc1	1%
O=C(O)C(Cc1c[nH]c2ccccc12)NS(=O)(=O)c1cccc2nsnc12 (stereo not given)	-2%
CCOC(=O)C1(CCc2ccccc2)CCN(C(=O)Cc2nonc2C)CC1	10%
O=c1[nH]c(=O)n([C@H]2C[C@H](O)[C@@H](CO)O2)cc1C(F)(F)F	14%
O=C(Nc1cccc2nsnc12)c1cccnc1	3%
CCC(=O)NC(=S)Nc1cccc(Cl)c1N1CCCC1	-10%
O=C(NCCCN1CCOCC1)c1ccccc1	-23%
Cc1ccccc1CN(c1ccc(C(=O)NCC2CCCO2)cc1)S(C)(=O)=O (stereo not given)	-22%
CCN(C(=O)CSc1nncn1-c1ccccc1)C1CCS(=O)(=O)C1 (stereo not given)	1%
N=C1SC(c2ccccc2)C(=O)N1c1ncc(Cc2ccccc2)s1 (stereo not given)	3%
O=C(Nc1nc2ccccc2s1)c1ccc2c(c1)OCO2	-27%
COc1ccccc1C(=O)N=C1NC(=O)CC2C(=O)NCCN12 (stereo not given)	-16%
O=C(Nc1ccc(S(=O)(=O)Nc2ncccn2)cc1)c1ccc(Cl)c([N+](=O)[O-])c1	-3%

Not a retest: 18 of the compounds above.
SMILES	N370S GC mod
CC1=C(C(=O)OC(C)C)C(c2c[nH]c3ccccc23)n2ncnc2N1 (stereo not given)	0%
CCOC(=O)c1cc(C#N)c(SCC(=O)c2cc(C#N)c(SC)nc2C)nc1C	-8%
CCOc1ccc(-c2cccc(NS(=O)(=O)c3cc([N+](=O)[O-])ccc3C)c2)nn1	-10%
CCCOC(=O)c1ccc(NC(=O)c2c(Cl)ccc(Cl)c2OC)cc1	-13%
Cc1nn(-c2ncc(C(F)(F)F)cc2Cl)c(=O)n1-c1ccccc1	7%
COC(=O)CN(C#N)c1nc(OC)nc(N(C)C)n1	8%
CC(CC(=O)Nc1nncs1)c1ccccc1 (stereo not given)	-11%
CN(CCC1CCOCC1)C(=O)C1CCC(=O)N(CCc2ccc(Cl)cc2)C1 (stereo not given)	-10%
O=C(CN(Cc1ccccc1)S(=O)(=O)c1ccccc1)N/N=C/c1ccc2c(c1)OCO2	0%
CC1CC(C)(C)NC(=S)N1CCC(=O)N1c2ccccc2CC1C (stereo not given)	-11%
CCOc1cc(C)c(Cl)cc1S(=O)(=O)n1ccnc1	3%
CCN(Cc1ccccc1)C(=O)CCS(=O)(=O)c1cc2c(cc1Cl)NC(=O)CO2	-6%
O=S(=O)(/N=C(\[O-])C[n+]1ccccc1)c1ccc(Cl)cc1	-1%
NC(=O)c1ccc(F)cc1	4%
O=C(NCC1CCCO1)c1cccc(Oc2ccc([N+](=O)[O-])cc2)c1 (stereo not given)	1%
COC(=O)C(Cc1ccc(O)cc1)NC(=O)c1ccc2c(c1)OCCO2 (stereo not given)	-16%
CCN(CC)C(=O)c1sc(NC(=O)Cc2cccs2)c(C#N)c1C	3%
O=C(O)CCC(NC(=O)c1ccc(Cl)cc1)C(=O)O (stereo not given)	0%

Continuation:
SMILES	N370S GC mod
Cc1cc(C)cc(N(CC(=O)NC(C)(C)C)C(=O)CCC(=O)Nc2ccccn2)c1	-21%
CCOC(=O)Cc1csc(NC(=O)c2c(-c3c(F)cccc3Cl)noc2C)n1	-19%
CC(=O)c1ccc(S(=O)(=O)N2CCN(C(=O)CSC(=S)N3CCCC3)CC2)cc1	0%
CC1CCCCN1C(=O)c1ccc(Br)o1 (stereo not given)	2%
CC1Cc2ccccc2N1S(=O)(=O)c1cccc(C(=O)N2CC(=O)Nc3ccccc32)c1 (stereo not given)	0%
COc1ccc(OCC(O)CNC(=O)Nc2cc(F)ccc2C)cc1 (stereo not given)	2%
Cc1nc2nc(-c3cccnc3)nn2c(C)c1Cl	3%
O=C(NCCc1ccccc1)C1CC(=O)N(C2CCCCCC2)C1 (stereo not given)	-4%
Cc1ccc(Cn2c(=O)n(Cc3ccco3)c(=O)c3ccccc32)cc1	9%
O=C(Nc1cccc(F)c1)c1c(F)c(F)c(F)c(F)c1F	-2%
COC(=O)[C@H](Cc1ccccc1)NC(=O)[C@H]1C[C@@H]1[C@H](NC(=O)OCc1ccccc1)c1ccccc1	1%
Cc1c(C(=O)NC2CCCCC2)sc2ncnc(N3CCN(c4ccccc4)CC3)c12	-2%
COc1ccc(CCn2c(=O)[nH]c3cc(C(=O)N4CCN(c5ccccc5)CC4)ccc3c2=O)cc1OC	-1%
NC(=O)C1CCN(C(=O)C2(NC(=O)Nc3cccc(F)c3)CCCCC2)CC1	-9%
COc1ccc(C2/C(=C(/O)c3ccccc3)C(=O)C(=O)N2C)cc1 (stereo not given)	-3%
CC(=O)C1C(=O)CC(C)(O)C(C(C)=O)C1c1ccccc1 (stereo not given)	0%
COc1ccc(N2CCN(c3ccc([N+](=O)[O-])nc3)CC2)cc1	-25%
CC(C)OC(=O)CSc1nnc(-c2cnccn2)n1-c1ccccc1	1%
COc1cccc(CN(C)C(=O)c2ccccc2SCC(=O)N2CCCC2)c1	-10%
Cc1ccc2oc(=O)c3cnn(CC(=O)Nc4ccccc4N4CCN(C)CC4)c3c2c1	25%
CC(C)Cn1c(SCC(=O)N2CCc3ccccc3C2)nc2cc(Cl)ccc2c1=O	29%
O=C(Nc1ccccn1)c1ccc(COc2ccccc2Cl)o1	7%
COc1ccc(N2CCN(C(=O)CNC(=O)c3cn(-c4ccccc4OC)c(=O)c4ccccc34)CC2)cc1	4%
O=C(CCCC(=O)Nc1ccccc1Br)N/N=C/c1c(F)cccc1Cl	-17%
O=C(CSc1nnc(COc2ccccc2)n1-c1ccccc1)c1ccccc1	27%
O=C1NC(c2cc3c(cc2Cl)OCO3)Oc2ccccc21 (stereo not given)	3%
COc1ccc(NC(=O)/C=C/C(=O)O)cc1Cl	-3%
Cc1c(/C=N/NC(=O)C(C)(C)Oc2ccc(Cl)cc2)cnn1C	6%
N#CC1=C(SCC(=O)c2ccc(Br)cc2)NC2=C(C(=O)CCC2)C1c1ccco1 (stereo not given)	9%
COc1cccc(C(=O)Nc2nnc(S(=O)(=O)N3CCOCC3)s2)c1	-1%
O=C(CN(c1ccc(F)cc1)S(=O)(=O)c1ccc2c(c1)OCCO2)NCc1ccccn1	-5%
Cc1cc([N+](=O)[O-])ccc1NC(=O)CCC(=O)N1CCCCCC1	5%
CCCNS(=O)(=O)c1ccc(OCC(=O)NCCCOC)cc1	27%
Cc1cccc(NC(=O)C2SC(=Nc3c(C)cccc3C)C(C(=O)N3CCOCC3)=C2N)c1 (stereo not given)	-1%
Fc1ccc(C2CCNCC2COc2ccc3c(c2)OCO3)cc1 (stereo not given)	-11%
Cc1noc(C)c1C(=O)Nc1ccc(F)cc1	2%
Cc1[nH]c(=S)n(CC2CCCO2)c1C (stereo not given)	-17%[2.35 µM]
NC(=O)c1c(NC(=O)CN2CCOCC2)sc2c1CCC2	-21%
O=C(CP(=O)(c1ccccc1)c1ccccc1)N1CCOCC1	8%
COc1cccc(=O)c2c(C)oc(C)c12	0%
COc1ccc(OCC(=O)Nc2cc(OC)ccc2N2CCCCC2)cc1	1%
CC(C)c1ccc(S(=O)(=O)Nc2ccc(-n3cnnn3)cc2)cc1	-14%

Ordered by molecular weight (high to low): part of the list above.
SMILES	N370S GC mod
COc1ccc(OCC(=O)Nc2cc(OC)ccc2N2CCCCC2)cc1	1%
CCCNS(=O)(=O)c1ccc(OCC(=O)NCCCOC)cc1	27%
CC(C)c1ccc(S(=O)(=O)Nc2ccc(-n3cnnn3)cc2)cc1	-14%
